# CDC25B-CDK2 inh: human CDC25B-CDK2/CyclinA binding inhibition | HTRF CDC25B-CDK2/CyclinA binding, anti-His/anti-Flag; stronger effect = higher value | actives 0.72% (n = 94,000) | P30305+P24941 | z-score (concentration not given with the values);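 further: score is relative to mean and SD of negative controls; strong numbers were not always called active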
# TAR Tat displ: HIV-1 TAR-Tat binding disruption | HIV-1 TAR RNA, Tat peptide displacement FRET; stronger effect = higher value | z-score (no concentration beside the values) | actives 0.6% (n = 100,000);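 further: score is relative to mean and SD of negative controls; some compounds called inactive have numbers as strong as hits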
# * hit, by the source's call; x = no result given.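 How the source made its calls: active means z-score from 3 up in half or more of its runs; inactive means the rest.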
# Results follow in this order: CDC25B-CDK2 inh	TAR Tat displ
- COc1cc(OC)c2c(=O)c(-c3ccc4c(c3)OCO4)coc2c1
    x	2.6
- Cc1c(C(=O)NC2CCCC2)oc2ccc(S(=O)(=O)N3CCC4(CC3)OCCO4)cc12
    -0.29	x
- CCN(c1ccccc1)S(=O)(=O)c1cc(-c2cnc(C)o2)ccc1C
    x	0.73
- COc1ccc(Br)c(-c2nnc(CS(=O)(=O)c3ccccc3)o2)c1
    -1.3	1
- O=C(Cc1csc2nc(-c3ccccc3)cn12)N1CCc2ccccc21
    x	1.4
- CCOc1ccc(-c2noc(-c3nnn(-c4ccc(Br)cc4)c3N)n2)cc1
    x	0.02
- COc1cc(C(SCC(=O)O)SCC(=O)O)cc(OC)c1OC
    -1.8	x
- Cn1ncc2c(NCc3ccc(Cl)cc3)nc(NCCO)nc21
    x	1.2
- CC1(C)Cc2c(C#N)c(SCc3ccccc3)nc(N3CCCC3)c2CO1
    0.79	-0.14
- CSc1nc(-c2ccccc2)c(C#N)c(=O)n1C
    -1.8	0.26
- O=c1c(S(=O)(=O)c2ccc(F)c(Cl)c2)c[nH]c2cc(Cl)c(F)cc12
    -2.3	0.82
- CC(NC(=O)c1ccc(NC(=O)N2CCSc3ncccc32)cc1)c1ccc2c(c1)OCCO2 (configuration not stated)
    x	0.49
- COc1cc2c(cc1NS(=O)(=O)c1ccc(N3CCCC3=O)cc1)n(C)c(=O)n2C
    x	0.78
- CSc1ncc(C(=O)Nc2ccc3c(c2)OCCO3)c(-c2ccccc2)n1
    x	1.6
- COC(=O)C1C(c2ccc(Cl)cc2)c2c([nH][nH]c2=O)CC1(C)O (configuration not stated)
    -0.61	0.19
- CCOC(=O)c1c(S(=O)(=O)N2CCCC(C(=O)NC3CC3)C2)c(C)n(CC)c1C (configuration not stated)
    x	2.5
- COc1ccc(Nc2nc(-c3ccc(F)cc3)cs2)cc1
    -0.38	x
- O=C1Nc2ccccc2C1Cc1cccc(Br)c1 (configuration not stated)
    0.66	0.15
- O=C(c1ccc2snnc2c1)N1CCOCC1
    -0.33	x
- O=C(c1[nH]nc2c1CCc1ccccc1-2)N1CCN(c2ccccc2)CC1
    x	1.4
- O=C(Nc1ccc(S(=O)(=O)Nc2ncccn2)cc1)c1csnn1
    -0.29	-0.91
- COC(=O)c1scc(C)c1NC(=O)CSc1ccc(Cl)cc1
    -0.38	x
- CC1CCN(C(=O)C2CCN(c3ccc(-c4cccs4)nn3)CC2)CC1
    x	0.63
- Clc1ccc(-c2noc(CN3CCN(c4ccccn4)CC3)n2)cc1
    -1.5	1.1
- Cc1oc2ncnc(N3CCOCC3)c2c1C(=O)NCCCN1CCC(C)CC1
    x	1
- Cc1nn(C)c(C)c1NC(=O)/C(C#N)=C\N(C)C
    -1.8	x
- CC1Cc2nc(SCC(=O)N3CCCCC3)n(-c3ccc(F)cc3)c(=O)c2S1 (configuration not stated)
    -1.2	0.6
- COCCCNC(=O)Nc1cn(C)c(=O)c2ccccc12
    x	-1.6
- CCCCN(C)[C@H]1CS(=O)(=O)C[C@@H]1S(=O)(=O)c1cccs1
    -0.42	-0.74
- COc1cccc(NC(=O)C(C)Sc2ncnc3c2sc2nc4c(cc23)COC(C)(C)C4)c1 (configuration not stated)
    x	-0.56
- O=C(C1CC(c2ccc(F)cc2)=NO1)N1CCOCC1 (configuration not stated)
    -1.4	1.2
- COc1ccc(CC(=O)N2N=C(C)CC2(O)c2cccnc2)cc1 (configuration not stated)
    -1.2	x
- CC(C)(C)c1ccc(C(=O)Nc2cnc3scnn3c2=O)cc1
    0.01	-0.1
- COc1ccc(C2c3c(oc4ccc(C)cc4c3=O)C(=O)N2c2nccs2)cc1OC (configuration not stated)
    -2.3	2
- CC(=O)O[C@H]1C[C@@H]2CC[C@@H]3[C@H](CC[C@@]4(C)[C@H]3C[C@H]([N+]3(C)CCCCC3)[C@@H]4OC(C)=O)[C@@]2(C)C[C@@H]1N1CCCCC1
    x	-0.61
- CC(Cc1ccco1)NC(=O)C1=Cc2ccccc2OC1 (configuration not stated)
    x	0.48
- CCOC(=O)c1cc(C)nc2c1c(=O)n(Cc1nc(-c3ccc(C(C)C)cc3)oc1C)c(=O)n2C
    x	1.1
- Cc1ccc(S(=O)(=O)OC[C@@H]2COc3cc4c(cc3O2)OCO4)cc1
    -0.82	x
- CC(CS(=O)(=O)c1ccc2c(c1)NC(=O)C(C)S2)C(=O)NCc1cccs1 (configuration not stated)
    x	-0.04
- CC(C)c1c(O)ccc2c1CCC1[C@@](C)(CO)CCC[C@]21C (some centres not stated)
    x	-0.07
- Cc1ccc2nc(Nc3ccc(Cl)cc3)c3nnnn3c2c1
    -1.6	-0.03
- CCNc1nc(NCC)nc(Oc2ccc(=O)[nH]n2)n1
    0.1	0.16
- CN(CC(=O)O)S(=O)(=O)c1ccc2c(c1)OCCO2
    -1.6	1.4
- O=c1[nH]ccn(Cc2ccc(F)cc2)c1=O
    -0.6	1.4
- CNc1nc2ccc(C(=O)c3ccccc3)cc2n2cnnc12
    x	-1
- Cn1c(=O)c2c(nc(CN3CCOCC3)n2Cc2cccc(Cl)c2)n(C)c1=O
    -0.22	0.2
- NC(N)=Nc1nc(=O)c2ccccc2s1
    -2.9	x
- Nc1nonc1-n1nnc(C(=O)O)c1CN1CCCC1
    -0.5	x
- O=C1Nc2ccccc2/C1=C/c1cc(F)cc2c1OCOC2
    -1.9	x
- c1ccc(CN2CCCN(Cc3ccccc3)C2c2ccco2)cc1
    -1.3	-1.3
- CCC1CN(C(=O)Nc2ccc(Br)cc2)c2ccccc2O1 (configuration not stated)
    x	2.3
- CN=Cc1cc(-c2ccccc2)oc1S
    -0.43	-10
- Cc1ccc(C)c(OCc2nc(-c3ccncc3)no2)c1
    0.4	-0.43
- CCc1ccccc1N1CSC2=C(C#N)C(c3cccc(F)c3)CC(=O)N2C1 (configuration not stated)
    6.3*	-1.2
- CCCCN(CCS(=O)(=O)N1CCNCC1)S(=O)(=O)c1ccccc1
    x	0.76
- Cc1n[nH]c(C)c1Sc1nnc(C(F)(F)F)n1C
    -1	x
- O=C(CCC(=O)N1CCSc2ccccc21)NCc1cccs1
    x	-1.5
- Cc1ccccc1C1C(C#N)=C2N=C(N)c3ccccc3N2C2=C1C(=O)CCC2 (configuration not stated)
    -0.46	-0.84
- CC(=O)[C@@]1(O)CCC2C3C[C@H](C)C4=CC(=O)C=CC4(C)[C@@]3(F)[C@@H](O)C[C@@]21C (some centres not stated)
    x	0.14
- O=C(O)CSCC(=O)NC1CCN(Cc2c(F)cccc2Cl)CC1
    -1.2	x

# The listing continues:
# Results follow in this order: CDC25B-CDK2 inh	TAR Tat displ
- O=C(CCC(=O)N1CCOc2ccc(Cl)cc21)N1CCCC1
    -0.95	-0.87
- CCCCCCN1CC(O)=C(c2nc3ccccc3s2)C1=N
    0.47	2.4
- CCOC(=O)c1ccc(-n2nnc3c(sc4nc(C)c(Br)c(COC)c43)c2=O)cc1
    0.48	0.79
- CC1(C)N=C(N)NC(Nc2ccccc2Cl)=N1
    0.78	x
- Cc1cc(=O)[nH]c2c1cnn2C(C)c1ccccc1 (configuration not stated)
    0.09	2
- COc1cccc(OC)c1C(=O)Oc1ccc2c(=O)c(Oc3ccccc3Br)coc2c1
    -1.7	0.15
- COc1ccc(-c2nn3c(-c4ccncc4)nnc3c3ccccc23)cc1
    0.83	0.76
- COc1ccc(C2CC(c3cc(Cl)ccc3O)=NN2)cc1OC (configuration not stated)
    -1.4	0.9
- CCc1nc(-c2csc(S(=O)(=O)Nc3ccc(Br)cc3F)c2)no1
    x	1.8
- CC1CCCCN1CCNC(=O)c1cc2ccc3cccnc3c2[nH]1 (configuration not stated)
    x	0.01
- COc1ccc(NC(=O)c2oc3ccccc3c2NC(=O)c2nc(SC)ncc2Cl)cc1
    -1.6	0.77
- Cc1cc(-c2ccccc2)n2ncc(-c3cccc(Br)c3)c2n1
    -0.05	-0.55
- CC(C)(C)c1ccc(-c2nc(-c3cccnc3)no2)cc1
    -0.72	-1.1
- CCN1CCCC1CNC(=O)Nc1cn(C)c(=O)c2ccccc12 (configuration not stated)
    x	-1.7
- O=C1c2ccncc2C(=O)N1c1ccccc1Cl
    x	2
- Cc1ccc(CNS(=O)(=O)c2ccc3[nH]c4c(c3c2)CCCC4)o1
    x	0.76
- CCn1ccc2cc(S(=O)(=O)N3CCCC(C(=O)NC(C)C)C3)ccc21 (configuration not stated)
    x	-0.04
- CCNC(=O)Nc1nc2ccccc2s1
    -1.1	2.1
- CCOC(=O)N1CCN(C(=O)Cn2cnc3sc4c(c3c2=O)CCCC4)CC1
    x	1.6
- CCCCN(C)Cc1c(C)[nH]c2ccc(Br)cc2c1=O
    -0.73	-0.18
- O=c1ccc(-c2ccc(F)cc2)nn1CCNS(=O)(=O)c1ccccc1
    x	0.31
- Clc1cccc2nc3n(c12)CCN(C1CCCCC1)C3
    -1.4	-1.8
- O=S(=O)(c1ccccc1)c1nnn2c1nc(NC1CCN(Cc3ccccc3)CC1)c1ccccc12
    x	1.3
- CC1CC2(CC(C)(c3csc(N)n3)OC2=O)C(=O)O1 (configuration not stated)
    -0.1	-0.24
- Cc1ccc(CSc2nccn(-c3ccc(C)c(C)c3)c2=O)cc1
    x	0.75
- Clc1ccc(-c2noc(-c3cccnc3N3CCN(c4ccccc4)CC3)n2)cc1
    -0.57	1.6
- FC(F)(F)c1cnc(CSc2nnc(SCC3CC3)s2)c(Cl)c1
    -0.87	x
- O=S(=O)(Nc1cc(F)ccc1F)c1ccc(N2CCCCS2(=O)=O)cc1
    x	0.81
- CCOC(=O)c1ccccc1N1C(=O)C2Sc3[nH]c(=O)sc3C(/C=C/c3ccccc3)C2C1=O (configuration not stated)
    0.33	-4.3
- O=C(c1ccc2c(c1)OCCO2)N(Cc1cccnc1)c1nc2c(F)cc(F)cc2s1
    x	0.53
- CCOC(=O)c1cn(CC(=O)NCCC2=CCCCC2)c2nc(C)ccc2c1=O
    x	0.29
- COc1ccc(CNS(=O)(=O)c2cn(C)c(C)n2)cc1
    x	1.3
- Cc1onc(-c2c(Cl)cccc2Cl)c1C(=O)ON1C(=O)c2ccccc2C1=O
    0.16	x
- Cn1ncc2c(Nc3ccc(F)cc3)nc(NCc3ccccc3)nc21
    x	0.48
- O=C(NCc1ccccc1)NC(c1ccccc1)c1nnc(-c2ccccc2)o1 (configuration not stated)
    x	0.43
- COc1ccc(-n2nnc(C(=O)O)c2C)cc1Cl
    -1.4	0.59
- O=C(Cn1cc(C(=O)C2CCCCC2)c2ccccc21)NCC1CCCO1 (configuration not stated)
    0.75	0.38
- CC1CC(=O)C2=C(C1)Nc1ncnn1C2c1ccccc1 (configuration not stated)
    -0.19	-0.66
- Cc1ccnc(-n2c(=S)[nH]c3sc(C)c(C)c3c2=O)c1
    -0.51	x
- CCOC(=O)c1c(NC(C)=O)c2c3c(sc2n1Cc1ccccn1)CCCC3
    x	1.7
- C=CCSc1nc2c(c(=O)[nH]1)C(c1ccccc1)C(C(=O)OC)=C(C)N2 (configuration not stated)
    -1.9	2
- CC1CCCN(S(=O)(=O)c2cc3c4c(c2)CC(=O)N4CCC3)C1 (configuration not stated)
    x	1.9
- Cc1oc2ncnc(NC3CCCC(C)C3C)c2c1C(=O)O (configuration not stated)
    -1.3	-0.53
- O=C(Nc1cc(-c2nc3cc(Cl)ccc3o2)ccc1Cl)c1ccc([N+](=O)[O-])o1
    1.4	-2.5
- COc1cccc(Nc2nc(NCCN3CCCCC3)nc3c2cnn3C)c1
    x	1.6
- CSc1sc(C#N)c2c1C(=O)CC(c1ccccc1)C2 (configuration not stated)
    -2.9	x
- CCOc1cc(-c2cc(N)n(S(=O)(=O)c3ccc(F)c(C)c3)n2)cc(OCC)c1OCC
    -1.7	x
- CN(C)S(=O)(=O)n1cc(/C=C/c2noc(-c3ccccc3O)n2)c2ccccc21
    -1.2	-0.37
- CCOC(=O)c1onc(-c2ccc(C)cc2)c1N
    -1.3	-0.22
- CCCCN1C(=O)N(C)C2NC(=S)NC21 (configuration not stated)
    -1.3	x
- CCOC(=O)C1=C(C)Nc2nc3ccccc3n2C1c1ccccc1 (configuration not stated)
    -0.64	-0.47
- Cc1cc(C)cc(NS(=O)(=O)c2ccc3c(c2)oc(=O)n3C)c1
    -1.9	x
- CCCCN(CCCC)S(=O)(=O)c1nc(C)c(Cl)c(C)c1C#N
    1.1	x
- CC(C)CCn1c(CN2CCN(c3ccc(F)cc3)CC2)nc2c1c(=O)n(C)c(=O)n2C
    -1.5	-0.55

# Part of the list above, comma-delimited:
Compound,CDC25B-CDK2 inh,TAR Tat displ
O=c1ccc(-c2ccc(F)cc2)nn1CCNS(=O)(=O)c1ccccc1,x,0.31
Clc1cccc2nc3n(c12)CCN(C1CCCCC1)C3,-1.4,-1.8
O=S(=O)(c1ccccc1)c1nnn2c1nc(NC1CCN(Cc3ccccc3)CC1)c1ccccc12,x,1.3
CC1CC2(CC(C)(c3csc(N)n3)OC2=O)C(=O)O1 (configuration not stated),-0.1,-0.24
Cc1ccc(CSc2nccn(-c3ccc(C)c(C)c3)c2=O)cc1,x,0.75
Clc1ccc(-c2noc(-c3cccnc3N3CCN(c4ccccc4)CC3)n2)cc1,-0.57,1.6
FC(F)(F)c1cnc(CSc2nnc(SCC3CC3)s2)c(Cl)c1,-0.87,x
O=S(=O)(Nc1cc(F)ccc1F)c1ccc(N2CCCCS2(=O)=O)cc1,x,0.81
CCOC(=O)c1ccccc1N1C(=O)C2Sc3[nH]c(=O)sc3C(/C=C/c3ccccc3)C2C1=O (configuration not stated),0.33,-4.3
O=C(c1ccc2c(c1)OCCO2)N(Cc1cccnc1)c1nc2c(F)cc(F)cc2s1,x,0.53
CCOC(=O)c1cn(CC(=O)NCCC2=CCCCC2)c2nc(C)ccc2c1=O,x,0.29
COc1ccc(CNS(=O)(=O)c2cn(C)c(C)n2)cc1,x,1.3
Cc1onc(-c2c(Cl)cccc2Cl)c1C(=O)ON1C(=O)c2ccccc2C1=O,0.16,x
